H5N1 antiviral – antiviral screen in MDCK cells, H5N1 avian flu | cytopathic effect, luminescence, 72 h; hits give high values; no value below 0 was filed and about half of the inactive calls have no number; reference of the scale not given here | 96,000 compounds, 0.07% hits | inhibition, % at 50 µM; in the data active = inhibition above about 25%
Numbers without * were called inactive; i = inactive.

Start of the listing, in advance:
SMILES | H5N1 antiviral
CCOC(=O)C1CCCN(C(=O)c2ccc(C)cc2O)C1 (configuration not stated) | 0.8
COc1cc(C(=O)Nc2ccc(S(=O)(=O)N3CCc4ccccc43)cc2)cc(OC)c1OC | 0.9
CC(C)OCCCNC(=O)c1cccs1 | 6.2
CCOc1ccc(C(=O)Nc2cc(C)on2)cc1OCC | 1.9

The list itself, previewed entries included:
SMILES | H5N1 antiviral
CCOC(=O)C1CCCN(C(=O)c2ccc(C)cc2O)C1 (configuration not stated) | 0.8
COc1cc(C(=O)Nc2ccc(S(=O)(=O)N3CCc4ccccc43)cc2)cc(OC)c1OC | 0.9
CC(C)OCCCNC(=O)c1cccs1 | 6.2
CCOc1ccc(C(=O)Nc2cc(C)on2)cc1OCC | 1.9
Cc1n[nH]c(=S)c2nn(-c3cccc(Cl)c3)c(C)c12 | 1.2
O=C(C1CC(c2ccc(F)cc2)=NO1)N1CCc2ccccc2C1 (configuration not stated) | i
Cc1nc2ccc(S(=O)(=O)NCC(=O)NCCN3CCCCC3C)cc2s1 (configuration not stated) | 0.6
CCOc1ccccc1-n1c(SCC(N)=O)nnc1-c1cccnc1 | 0.1

Going on with the list.
SMILES | H5N1 antiviral
CCOC(=O)N1CCN(C(c2ccc(C(C)C)cc2)c2sc3nc(C)nn3c2O)CC1 (configuration not stated) | 1.7
O=C(O)c1ccc(NC(=O)C2CCCCC2)cc1 | 1.2
CCOC(=O)N1CCC(n2c(SCC(=O)OCc3ccccc3)nc3ccsc3c2=O)CC1 | 0.5
CCc1nnc(NC(=O)CSc2nnc(-c3ccco3)n2C)s1 | 0.2
Cc1cnn(CCC(=O)NNC(=S)Nc2ccc(F)cc2)c1 | i
CC1CCN(c2nc(-c3ccco3)c3c(c2C#N)CC(C)(C)OC3)CC1 | 7.2
N#Cc1cccc(NC(=O)CCn2ccnc2)c1 | i
CC(C)n1ncc(C(N)=O)c1N | i

More entries:
SMILES | H5N1 antiviral
CC(Sc1ncnc2ccccc12)C(=O)Nc1ccc2c(c1)OCO2 (configuration not stated) | 0.0
COCC(=O)NC1CCN(C(=O)Nc2ccc(Br)cc2)CC1 | i
CC(=O)NCCC(Cc1ccccc1)c1ccco1 (configuration not stated) | i
CC(=O)c1cc2c(cc1NC(=O)CN1CCN(c3ccc(F)cc3)CC1)OCO2 | 0.5
CCOc1ccc(C(=O)Nc2ccncc2)cc1 | 2.1
Cc1ccc(-n2nnnc2SCc2nnc(-c3ccccc3Br)o2)c(C)c1 | 2.0
CCOCCCNC(=O)c1ccc(Br)cc1 | 0.2
CCCCSc1nc(C)cc(C)c1S(=O)(=O)c1ccccc1C | 0.8

Following part
SMILES | H5N1 antiviral
CCn1cc(Br)c(C(=O)N(C)Cc2ccccc2)n1 | i
CCOC(=O)c1c(C(C#N)C#N)cc(C)nc1C | 0.9
COc1cc(C(=O)NCc2ccc(-c3nc4ccccc4o3)cc2)cc(OC)c1OC | 4.0
Cc1[nH]c2ccc(Br)cc2c(=O)c1CN1CCCCC1 | 1.9
CC(C)CC(C(=O)NCC1CCCO1)N(C(=O)Cn1nnc(-c2ccc(F)cc2)n1)c1ccccc1F (configuration not stated) | 4.8
COc1cccc(NC(=O)CN2C(=O)C3(OCCCO3)c3ccccc32)c1 | i
O=C(O)/C=C/C(=O)NNC(=O)c1ccccc1Br | 0.4
COCCNC(=O)c1ccc2c(c1)nc(C)n2-c1cc(OC)c(OC)c(OC)c1 | 1.3

(more compounds)
SMILES | H5N1 antiviral
COc1ccccc1NC(=O)CN(c1ccc(C23CC4CC(CC(C4)C2)C3)cc1)S(C)(=O)=O | i
O=C(NCc1ccncc1)Nc1ccccc1 | 0.4
C=CCn1c(=O)/c(=C\c2ccsc2)s/c1=C(/C#N)C(=O)NCCN1CCOCC1 | i
COc1cc(NC(=O)C(F)(F)F)cc(OC)c1 | i
O=C(Nc1ccc(-c2nnc(-c3ccccc3)o2)cc1)C1CCCO1 (configuration not stated) | 0.1
Cc1cc(=O)n(CCC(=O)O)c2ccccc12 | 0.1
CCS(=O)(=O)NCc1csc(C)n1 | i
COC(=O)CSc1nnnn1-c1cccc2ccccc12 | i

Further entries.
SMILES | H5N1 antiviral
N#Cc1c(NC(=O)CCN2C(=O)c3ccccc3C2=O)oc(-c2ccccc2)c1-c1ccccc1 | 0.4
C[N+]1(CCN2C(=O)C3CC=C(Cl)CC3C2=O)CCOCC1 (configuration not stated) | i
Cc1cccc(C)c1NC(=S)NC(=O)CCc1ccccc1 | i
O=C1Nc2ccccc2OC1CC(=O)N1CCN(c2cccc(C(F)(F)F)c2)CC1 (configuration not stated) | i
COc1cccc2c1OC1(C)CC2/C(=C(\C)O)C(=O)N1 (configuration not stated) | 0.6
Cc1noc(C)c1COc1ccc(C(=O)OCC(=O)NC23CC4CC(CC(C4)C2)C3)cc1 | 1.9
CC(=O)N(CCC(Cc1ccccc1)c1ccc2c(c1)OCO2)Cc1ccccc1F (configuration not stated) | 0.9
CCOC(=O)C1(C(F)(F)F)N=C(c2cccnc2)OC(N2CCOCC2)=N1 (configuration not stated) | 0.2

New compounds follow
SMILES | H5N1 antiviral
Cc1ccc(NC(=O)NC2CCCN2S(=O)(=O)c2ccc(Cl)cc2)cc1 (configuration not stated) | 0.7
COc1ccc(CCN2C(=O)c3[nH]nc(-c4ccccc4O)c3C2c2cccc(Cl)c2)cc1 (configuration not stated) | i
CCC(CC)C(=O)N=C1SC2CS(=O)(=O)CC2N1CCc1ccc(OC)cc1 (configuration not stated) | 1.7
O=S(=O)(c1ccc(F)cc1)N1CCN(c2ncnc3c2cnn3-c2ccccc2)CC1 | 1.2
O=C(/C=C/c1ccc(Cl)cc1Cl)NCc1ccco1 | 0.1
COc1ccc(C)cc1NC(=O)CSc1nnc(COc2ccc(C)cc2)n1Cc1ccco1 | 3.5
O=C(c1ccc(CN2CCOCC2)cc1)N1CCN(c2cccc(Cl)c2)CC1 | 0.7
COc1ccccc1NC(=O)/C=C/C(N)=O | 1.1

(next part)
SMILES | H5N1 antiviral
Cc1ccc2c(c1)nnn2C1CCN(C(=O)NC23CC4CC(CC(C4)C2)C3)CC1 | i
O=C(Nc1ccccc1F)N(CCCN1CCOCC1)Cc1cc2cc3c(cc2[nH]c1=O)OCCO3 | 1.8
Cc1c(NC(=O)OCCNC(=O)COc2c(Cl)cccc2Cl)sc(=S)n1C | i
CSc1nc2ccccc2cc1/C=C(\C#N)c1ccc(Cl)cc1Cl | 0.1
CCOC(=O)N1CCC(NC(=O)Cn2ncc3ccccc32)CC1 | 0.1
CCOC(=O)c1nnn(-c2nonc2N)c1COc1c(C=O)cccc1OC | i
Fc1ccc(-c2cc3nc4c(c(N5CCOCC5)n3n2)CCCC4)cc1 | 1.0
CCN(CC)CCCNC(=O)CCc1ccccc1 | i

(more compounds)
SMILES | H5N1 antiviral
COC(=O)c1[nH]c2cccc(Cl)c2c1NC(=O)CN1CCCCC1C (configuration not stated) | 0.7
COC(=O)CSc1nnc(CNC(=O)Cc2ccccc2)n1C | i
COc1ccccc1NC(=O)CSc1nnc(C)n1CCc1ccccc1 | 1.1
Cc1ccc(S(=O)(=O)N2CCCCC2)cc1C(=O)Nc1ccc2cn[nH]c2c1 | 1.8
Cn1c(=O)n(C)c2cc(/C=N/NC(=O)c3cccc(Br)c3)ccc21 | 0.4
O=C(Nc1cccc(O)c1)c1cc(S(=O)(=O)N2CCCC2)ccc1Cl | 1.0
O=C(CNC(=O)OCc1ccccc1)Oc1cc2oc(=O)cc(-c3ccccc3)c2cc1Cl | 0.1
O=C(Cc1cccs1)NCc1cn2ccccc2n1 | 0.5

Other results.
SMILES | H5N1 antiviral
CC(=O)c1cc(CN2C(=O)CCC2=O)cs1 | i
O=C(C1CC1)N1CCN=C1SCc1ccccc1 | 1.0
O=c1c(-c2ccccc2)[n+]([O-])c2ccccc2n1O | i
COC(=O)CSc1nc(N)c2c3c(sc2n1)CCCC3 | 0.1
OC(CN(c1ccccc1)c1ccccc1)Cn1cnc2ccccc21 (configuration not stated) | i
COc1cc(OC)cc(-n2nnnc2SCC(=O)N2CCCc3ccccc32)c1 | 1.5
CCOCCn1c(C(C)C)nc2ccccc21 | 1.7
COc1ccc(C2N(c3ccc(Cl)cc3)C(=O)C3CCCN32)cc1 (configuration not stated) | i

Following part.
SMILES | H5N1 antiviral
CCn1c2ccccc2c2cc(NC(=O)CSc3nnnn3-c3ccccc3)ccc21 | 0.4
c1ccc(-c2cc(-c3nn4c(-c5ccco5)nnc4s3)c3ccccc3n2)cc1 | 2.2
CSc1cccc(NC(=O)CN(c2ccccc2)S(=O)(=O)N(C)C)c1 | 0.5
CN(C)c1ccnc2sc(C(=O)NCc3ccccc3)c(N)c12 | i
CCOc1ccccc1CNS(=O)(=O)c1ccc2[nH]c(=O)sc2c1 | 2.8
CCC(C)NC(=O)CC1Oc2ccc(C)cc2NC1=O (configuration not stated) | 0.3
O=C(COc1ccc2oc(-c3ccccc3)cc(=O)c2c1)NCc1ccco1 | 0.9
Cn1c(=O)[nH]c(=O)c2c1nc(N1CCCCCC1)n2CCN1CCCCCC1 | 3.4

Further entries follow.
SMILES | H5N1 antiviral
CCOc1ccc(-n2c(Cc3ccccc3)nnc2SCc2c(C)noc2C)cc1 | 0.8
Cc1c(C(=O)Oc2cccc3ccccc23)cnn1-c1ccccc1 | 0.5
CCc1ccc2oc(=O)cc(CN3CCN(c4ccc(F)cc4)CC3)c2c1 | 0.7
COc1cc(C(=O)NNC(=O)NC2CCCCC2)cc(OC)c1OC | i
Cn1c(/C(C#N)=C/C2CC=CCC2)nc2ccccc21 (configuration not stated) | 0.6
Cc1ccc(NC(=O)CN2C(=O)N/C(=C/c3ccco3)C2=O)cc1 | i
CC1CCN(c2nc3c(c(=O)n(C)c(=O)n3C)n2CCSc2nc3ccccc3s2)CC1 | 3.1
CC1CCc2c(sc(N)c2C(=O)OC(C)C)C1 (configuration not stated) | 0.4

Next part, overlapping the part above by 2 compounds.
SMILES | H5N1 antiviral
CC1CCN(c2nc3c(c(=O)n(C)c(=O)n3C)n2CCSc2nc3ccccc3s2)CC1 | 3.1
CC1CCc2c(sc(N)c2C(=O)OC(C)C)C1 (configuration not stated) | 0.4
CCc1ccc(Nc2ncc3c(n2)CC(c2ccco2)CC3=O)cc1 (configuration not stated) | i
CC(=O)Nc1ccc(NC(=O)CSc2ncnn2-c2ccccc2)cc1 | 1.1
Cc1cc(-c2ccccc2)c(C#N)c(SCC(N)=O)n1 | 0.4
O=S(=O)(Nc1ccc2c(c1)OCCO2)c1cccc2cccnc12 | 1.2
CCOC(=O)N1CCN(C(=O)C2CC(=O)N(Cc3ccc(OC)cc3)C2)CC1 (configuration not stated) | 0.1
Cc1nc2c(C(=O)O)cnn2c(C)c1Cc1ccccc1F | i
CCOc1ccc(N2CC(O)Cn3c2nc2c3c(=O)n(CCCc3ccccc3)c(=O)n2C)cc1 (configuration not stated) | i
COc1ccccc1NS(=O)(=O)c1ccc2oc(SC3CCOC3=O)nc2c1 (configuration not stated) | 1.1

Further compounds.
SMILES | H5N1 antiviral
COc1ccc(NC(=O)CC(C)C)c(OC)c1 | 0.2
CCOc1ccc2nc(NC(=O)CCC(=O)c3cccs3)sc2c1 | 0.2
Cc1cccc(CSc2nnc(Cn3c(=O)sc4ccccc43)n2C)c1 | 0.1
COCCn1nnnc1C(c1cc2cc(C)ccc2[nH]c1=O)N1CCN(C2CCCCC2)CC1 (configuration not stated) | 0.8
O=C(CSc1nnc(-c2cccnc2)n1C1CCCCC1)NC1CCCC1 | 0.7
N#Cc1cc(-c2ccccc2)nnc1Sc1ccc(F)cc1 | 1.0
O=C(CSC(=S)N1CCCCC1)Nc1nc(-c2ccccc2)c(-c2ccccc2)o1 | i
O=C(O)CCCC(=O)N1CCc2cc(S(=O)(=O)N3CCc4ccccc43)ccc21 | 4.3

(listing goes on)
SMILES | H5N1 antiviral
Cc1noc(/C=C/N(C)C)c1S(=O)(=O)N1CCCC(C(=O)NCc2ccccc2Cl)C1 (configuration not stated) | 0.9
O=C(CC(=O)c1ccccc1O)c1cccc(F)c1 | 0.5
COC(=O)c1ccc(C2C(C(=O)Nc3ccccc3C)=C(C)Nc3ncnn32)cc1 (configuration not stated) | 2.4
Cc1cc(N2CCCc3ccccc32)n2ncnc2n1 | 1.3
O=C(OCc1cc2ccccc2[nH]c1=O)c1ccco1 | i
CSc1nc(N)nc(SC2C=CCCC2)c1C#N (configuration not stated) | i
CC(=O)Nc1ccc(S(=O)(=O)Nc2nccc(C3Cc4ccccc4C(=O)O3)n2)cc1 (configuration not stated) | 0.2
Cc1ccccc1-c1ccc(C=Nc2c(C)n(C)n(-c3ccccc3)c2=O)o1 | 0.5

Later entries.
SMILES | H5N1 antiviral
O=c1c2ccccc2ncn1-c1ccc2c(c1)OCCO2 | i
COCCNC(=O)CN(C)S(=O)(=O)c1ccc2c(c1)OCCO2 | i
O=C(CSc1ncn[nH]1)N1CCN(S(=O)(=O)c2ccccc2)CC1 | 0.8
O/N=C1/CCCCC1c1ccccn1 (configuration not stated) | 1.6
O=C(NCc1ccccc1)c1ccc2c(c1)C(=O)N(Cc1ccncc1)C2=O | i
CCOC(=O)c1ccc(-c2ccc(CO)o2)cc1 | i
Cc1cc(NC(=O)CSCCO)no1 | 0.1
CCn1cc(C(=O)N2CCc3ccccc32)c(=O)c2cc(S(=O)(=O)N3CCOCC3)ccc21 | 0.5

Taken from the results shown, two compounds:
SMILES | H5N1 antiviral
Cc1cc(NC(=O)CSCCO)no1 | 0.1
CCn1cc(C(=O)N2CCc3ccccc32)c(=O)c2cc(S(=O)(=O)N3CCOCC3)ccc21 | 0.5

Further records
SMILES | H5N1 antiviral
CCCCNC(=O)c1sc2ncnc(N3CCc4ccccc4C3)c2c1C | 2.0
Cc1ccc(S(=O)(=O)n2nc(-c3ccco3)nc2SCc2ccccc2)cc1 | i
O=C(CN1CCCCC1)Nc1ccc(S(=O)(=O)NC2CCCCC2)cc1 | i
O=C(c1ccccc1)n1nc(-c2ccccc2)nc1NCc1ccco1 | 0.8
CCn1c2ccc(CC(=O)O)cc2c2cc(CC(=O)O)ccc21 | 0.4
CNC(=O)COC(=O)c1cccnc1SC | 0.2
N#Cc1cc(F)c(N2CCNCC2)cc1Cl | i
O=C(/C=C/c1ccccc1)N1CCN(c2cccc(Cl)n2)CC1 | i
CC(=O)N1CCc2cc(S(=O)(=O)CCC(=O)Nc3ccc4c(c3)OCCO4)ccc21 | 0.6
O=c1[nH]c(CSc2nnc(-c3cccnc3)n2C2CCCCC2)nc2ccccc12 | i
Cc1noc(C)c1C(=O)N1CCN(c2ncccn2)CC1 | i

Some of the compounds tested; rates above refer to the full screens.
